Vif A3G: HIV-1 Vif–A3G interaction blockers – biochemical, TR-FRET, GST-Vif 1-94, biotin-A3G peptide, dose response retest, primary screen (AID 1117319); TR-FRET GST-Vif / biotin-A3G peptide binding; higher % means a stronger effect; test concentration not given here; strong numbers were not always called active; inhibition, %, or IC50 in µM where a hit was titrated; 260,000 tested, 0.57% active;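 active = above the screen mean plus three standard deviations and confirmed in dose response; inconclusive = results disagree or hit not tested in dose response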;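 also: Vif residues 1-94 fused to GST binding biotinylated APOBEC3G peptide 110-148; 0% = full assay without inhibitor and 100% = GST in place of GST-Vif; retest series ran down from 100 µM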
Beta cell apopt: blocks beta cell apoptosis; protection from apoptosis, % (test concentration not listed); AID 435005; 300,000 tested, 0.8% active; INS-1E cytokine-induced death, ATP luminescence, 48 h; percent of positive-control rescue, neutral wells zero;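 active = all replicates at 75% or more, or half of them and the mean; inconclusive = half reach 75% but not the mean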;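 also: 0% = cytokine-treated negative control wells and 100% = positive control rescue; higher means more ATP so stronger rescue from cytokine killing; wells of about 40 µL received 100 nL stock; the first replicate is given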
RanGTP-Impb inh: disruptors of Ran-importin-beta complex formation – biochemical, FRET, CFP-Ran, YFP-importin-beta, homogeneous, primary screen; cell-free CFP-Ran/YFP-importin-beta FRET ratio; inhibition, % (concentration not given with the values); 300,000 tested, 1.1% active; AID 2216;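 active = most replicates above 15%; inconclusive = exactly half above 15%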;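 also: 0% = DMSO wells and 100% = Ran loaded with GDP instead of GTP; wells of about 40 µL received 100 nL stock; the first replicate is given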
LANA-H2A inh: blocks KSHV LANA binding to histone H2A/H2B; Q9QR71; cell-free LANA-H2A/H2B peptide, fluorescence polarization; inhibition, % (no concentration beside the values); 320,000 tested, 0.6% active; AID 2629; in the data active = inhibition mostly above about 10%, no sharp cut-off; inactive = mostly below about 6.7%;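 also: stock transfer was 7.5 nL into about 10 µL; 0% = median of vehicle wells and 100% = median of positive control wells; one replicate is shown; the record names a cut of 25% in any replicate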
Target sequence (Q9QR71 whole entry, looked up): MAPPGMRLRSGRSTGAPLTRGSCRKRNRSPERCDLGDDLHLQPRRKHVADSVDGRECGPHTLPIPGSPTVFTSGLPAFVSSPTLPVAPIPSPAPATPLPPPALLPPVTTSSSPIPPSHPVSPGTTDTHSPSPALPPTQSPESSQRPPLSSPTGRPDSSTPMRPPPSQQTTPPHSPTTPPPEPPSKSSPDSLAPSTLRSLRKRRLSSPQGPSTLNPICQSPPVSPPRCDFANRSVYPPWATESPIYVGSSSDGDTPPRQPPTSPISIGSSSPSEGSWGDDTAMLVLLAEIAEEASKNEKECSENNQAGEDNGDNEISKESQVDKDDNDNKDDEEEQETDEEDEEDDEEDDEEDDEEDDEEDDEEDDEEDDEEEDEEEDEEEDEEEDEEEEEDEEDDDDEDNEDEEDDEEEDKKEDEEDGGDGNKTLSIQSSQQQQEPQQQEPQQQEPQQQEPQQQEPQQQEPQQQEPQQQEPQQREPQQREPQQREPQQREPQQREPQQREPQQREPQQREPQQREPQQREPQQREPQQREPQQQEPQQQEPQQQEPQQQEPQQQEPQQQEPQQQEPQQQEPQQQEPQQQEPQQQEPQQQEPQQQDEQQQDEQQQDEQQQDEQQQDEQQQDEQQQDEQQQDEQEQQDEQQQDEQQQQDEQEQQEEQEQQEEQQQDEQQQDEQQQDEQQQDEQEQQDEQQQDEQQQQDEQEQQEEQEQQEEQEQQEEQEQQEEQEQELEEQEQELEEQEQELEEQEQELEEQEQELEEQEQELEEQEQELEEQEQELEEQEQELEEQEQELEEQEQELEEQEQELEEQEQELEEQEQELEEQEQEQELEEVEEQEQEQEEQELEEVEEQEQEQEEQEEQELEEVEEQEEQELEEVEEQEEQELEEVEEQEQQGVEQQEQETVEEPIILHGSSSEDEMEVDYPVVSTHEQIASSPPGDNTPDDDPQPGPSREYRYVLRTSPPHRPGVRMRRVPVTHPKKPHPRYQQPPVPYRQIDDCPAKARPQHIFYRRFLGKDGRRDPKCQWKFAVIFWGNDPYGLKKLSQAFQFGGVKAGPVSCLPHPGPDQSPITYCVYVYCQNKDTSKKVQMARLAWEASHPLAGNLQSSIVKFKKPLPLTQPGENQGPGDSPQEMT
T cruzi repl: T. cruzi replication inhibition; T. cruzi beta-gal in NIH3T3, luminescence, 90 h; inhibition, % (test concentration not listed); 300,000 tested, 1.4% active; AID 1885;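 active = mean inhibition across valid replicates above about 55%, limit read from the data; inconclusive = mean below that limit but half or more replicates reach it; inactive = mean below it, under half of replicates reach it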;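 also: signal also drops with host cell toxicity which is not excluded here; 0% = plate median of DMSO wells and 100% = zero luminescence signal; higher percent means less beta-gal luminescence so fewer parasites; stock transfer was 50 nL into about 50 µL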
Bfl-1 A1 inh: inhibitors of the anti-apoptotic protein A1, read as caspase activation; MEF A1-2A-BIM cells, Caspase-Glo 3/7 luminescence, 3 h; percent of clofoctol response, vehicle zero; 330,000 tested, 0.066% active; AID 2462; caspase activation, % (concentration not given with the values);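 active = over half of replicate activation scores above 10%, or exactly half above 10 with the replicate mean above 10; inconclusive = replicate mean below 10 yet half the replicates above 10; inactive = over half of replicates below 10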;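 also: wells of about 30 µL received 50 nL stock; many hits fall short of the cut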
MLL AF4-AF9 inh: inhibitors of human MLL-AF4/AF9 interaction. 350,000 tested, 0.47% active. inhibition, % at 10 µM. AlphaScreen, biotin-AF4 peptide binding to FLAG-AF9;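 active = every replicate reaching a set inhibition limit, whatever the replicate mean, cut at about 25% in these data; inconclusive = mean inhibition reaches that limit but some replicates miss it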;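 also: 0% = plate neutral control median and 100% = total signal loss; the record names both 10 and 1 µM as test concentration; the first replicate is given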
Calb FLC: C. albicans growth modulation with fluconazole | C. albicans CaCi-2 (fluconazole-resistant clinical isolate) + fluconazole, Alamar Blue growth, 48 h | growth inhibition, % (no concentration beside the values) | 300,000 tested, 0.57% active | AID 1979;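 active = most replicates above 75%; inconclusive = exactly half above 75%; inactive = most below 75%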;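 also: all wells also contain fluconazole at 8 µg/ml as a sub-toxic cotreatment; 0% = median of DMSO wells and 100% = median of geldanamycin control wells; wells of about 8 µL received 7.5 nL stock; the first replicate is given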
Numbers without * were called inactive; ? = inconclusive; . = no result given.

#1 CCOC(=O)Cn1ncn(-c2ccc(OC(F)(F)F)cc2)c1=O
#2 CCCCn1c(N)c(N(CC(C)C)C(=O)c2oc3ccc(OC)cc3c2C)c(=O)[nH]c1=O
#3 CCOc1ccc(NCc2nnc(SCc3ccccc3Cl)n2-c2ccccc2)cc1
#4 NS(=O)(=O)c1ccc(NC(=O)CN2CCN(S(=O)(=O)/C=C/c3ccccc3)CC2)cc1
#5 COc1ccc(CCNC2CC(C)N(C)CC2C)cc1OC (stereo not given)
#6 Cc1ccc(S(=O)(=O)N(C)Cc2ccc(C(=O)N/N=C3\CC(=O)CC(C)(C)C3)cc2)cc1
#7 CCOC(=O)CSc1nnc2c3ccccc3n(CC)c2n1
#8 Cc1ccc(S(=O)(=O)N(C)c2ccc(C(=O)Nc3cccnc3)cc2)cc1
assay / compound,1,2,3,4,5,6,7,8
Vif A3G,-5%,1%,-2%,8%,3%,10%,.,.
Beta cell apopt,-16,-5,-4,-3,3,1,3,-5
RanGTP-Impb inh,4.8,1.0,4.5,5.8,27*,19*,-5.6,.
LANA-H2A inh,-7.4,.,2.5,1.0,-1.7,-2.0,-1.9,-0.9
T cruzi repl,-9,12,14,-17,9,13,3,-8
Bfl-1 A1 inh,0.8,-0.4,0.3,-0.2,0.9,0.3,-0.7,0.1
MLL AF4-AF9 inh,-3.6,0.2,.,0.3,.,.,-1.5,0.2
Calb FLC,0,10,14,-2,-4,7,4,.

Compound profiles, from the list above. Order of screens: Vif A3G	Beta cell apopt	RanGTP-Impb inh	LANA-H2A inh	T cruzi repl	Bfl-1 A1 inh	MLL AF4-AF9 inh	Calb FLC
`CCOC(=O)CSc1nnc2c3ccccc3n(CC)c2n1` in the list: .	3	-5.6	-1.9	3	-0.7	-1.5	4
`NS(=O)(=O)c1ccc(NC(=O)CN2CCN(S(=O)(=O)/C=C/c3ccccc3)CC2)cc1` in the list: 8%	-3	5.8	1.0	-17	-0.2	0.3	-2
`CCOC(=O)Cn1ncn(-c2ccc(OC(F)(F)F)cc2)c1=O` in the list: -5%	-16	4.8	-7.4	-9	0.8	-3.6	0

(listing goes on)
#9 C=CCn1c(SC(C)C(=O)NC2(C#N)CCCCC2)nnc1-c1ccc(OC)cc1 (stereo not given)
#10 Cc1nc2c(c(=O)n1CCC1=CCCCC1)c1nc3ccccc3nc1n2/N=C/c1ccco1
#11 CCc1nc(N)c(C#N)c(-c2ccc(O)c(OC)c2)c1C
#12 CCCN(CC(=O)Nc1ccccc1C)C(=O)CC(NC(=O)c1ccccc1)c1ccccc1 (stereo not given)
#13 Cc1ccc(C(=O)/C=C/c2ccc(-c3ccccc3[N+](=O)[O-])o2)cc1
#14 COCCNC(=O)c1ccc2c(=O)n(Cc3ccco3)c(SCC(=O)NC3CCCCC3)nc2c1
#15 CCN(CC(=O)Nc1ccc(NC(C)=O)cc1)C(=O)c1oc2c(ccc3ccccc32)c1C
#16 Cc1ccc(S(=O)(=O)c2ccccc2)cc1S
assay / compound,9,10,11,12,13,14,15,16
Vif A3G,1%,32%,-2%,-4%,17%,1%,-10%,1%
Beta cell apopt,0,4,0,-2,-9,-1,-2,-9
RanGTP-Impb inh,-0.9,0.9,-1.2,?,1.2,-11,.,1.8
LANA-H2A inh,-1.4,2.2,1.3,-3.1,-1.9,6.0,-2.5,0.2
T cruzi repl,-1,34,12,4,-15,18,.,62*
Bfl-1 A1 inh,0.5,0.0,0.2,-0.2,0.6,-0.7,-0.3,-0.3
MLL AF4-AF9 inh,.,.,.,-6.5,.,.,1.3,.
Calb FLC,-3,-22,1,3,5,?,.,-8

#17 O=C(O)CCN1C(=O)c2ccc(NC(=O)CSc3ccc(Cl)cc3)cc2C1=O
#18 C[C@@H]1CC=C[C@H]2[C@H]1C(=O)N(Cc1ccccc1)[C@H]2c1ccc(F)c(Br)c1
#19 CCn1c(CSc2nc3ccccc3s2)nnc1SCC(=O)OC(C)(C)C
#20 CN(C)CCCNc1nc(-c2ccccc2)c2c(c1C#N)CC(C)(C)OC2
#21 CCCc1nnc2n1N=C(c1ccc(C)cc1)CS2
#22 Cc1[nH]c(=O)[nH]c1C(=O)CCCCC(=O)O
#23 CC(C)CN(C(=O)COC(=O)c1ccc([N+](=O)[O-])s1)c1c(N)n(Cc2ccccc2)c(=O)[nH]c1=O
#24 COc1ccc(/C=C2\SC(=O)N(CCNC(=O)Cc3coc4cc(C)ccc34)C2=O)cc1OC
assay / compound,17,18,19,20,21,22,23,24
Vif A3G,.,18%,14%,-10%,.,.,1%,1%
Beta cell apopt,0,.,1,-1,.,-4,-3,-1
RanGTP-Impb inh,5.0,2.8,?,-3.7,-1.3,4.5,-3.5,-0.2
LANA-H2A inh,-1.2,.,0.7,2.9,-0.3,-0.7,-2.6,-2.0
T cruzi repl,-20,51,21,46,6,-6,63*,-4
Bfl-1 A1 inh,0.4,.,0.3,-0.3,2.5,-0.1,-0.2,-0.2
MLL AF4-AF9 inh,-11,.,.,-5.0,0.4,73*,1.6,0.6
Calb FLC,5,-15,-4,-5,-3,-11,7,19

#25 CC(=O)Nc1ccc(NC(=O)C(C)OC(=O)c2ccc3ccccc3n2)cc1 (stereo not given)
#26 Cn1c(COc2ccccc2)nnc1SCC(=O)Nc1ccc2c(c1)OCO2
#27 COc1cc(N)c(Cl)cc1C(=O)OCC(=O)NCc1cccs1
#28 Cc1ccc(NC(=S)NC(C)(C)C)c([N+](=O)[O-])c1
#29 COc1ccccc1OCc1ccc(C(=O)NC2CCCCC2)o1
#30 CCCOc1ccc(S(=O)(=O)N2CCN(C)CC2)c2ccccc12
#31 Nc1ncc(N=Nc2cc(C(=O)O)ccc2Cl)s1
#32 CCNC(=S)NC1CC2CCCC(C1)N2CCc1ccccc1 (stereo not given)
assay / compound,25,26,27,28,29,30,31,32
Vif A3G,1%,11%,.,.,6%,.,?,2%
Beta cell apopt,1,-4,0,3,4,-8,-4,-2
RanGTP-Impb inh,.,0.2,.,-5.1,3.8,?,.,-2.8
LANA-H2A inh,2.6,3.1,2.7,1.7,0.3,5.0,-5.9,9.3
T cruzi repl,.,-17,.,0,1,1,.,9
Bfl-1 A1 inh,-0.3,-0.1,-0.3,-0.2,0.0,-0.3,0.2,-0.5
MLL AF4-AF9 inh,-7.6,.,-3.1,-2.2,3.1,4.9,-5.4,4.5
Calb FLC,.,-9,.,3,-6,-7,.,-7

#33 CCOc1ccc2oc(=O)cc(CN3CCN(Cc4ccccc4)CC3)c2c1
#34 COc1cccc(NC(=O)C2CCN(S(C)(=O)=O)CC2)c1
#35 Cc1ccc(S(=O)(=O)N2CCN(C(=O)CN3C(=O)NC(C)(c4ccc(Cl)cc4)C3=O)CC2)c(C)c1 (stereo not given)
#36 COC(=O)c1cc(NC2c3ccccc3C(=O)N2c2cccnc2)cc(C(=O)OC)c1 (stereo not given)
#37 Cc1ccc(S(=O)(=O)N(C)c2ccc(OCC(=O)Nc3nc(-c4ccccc4)cs3)cc2)cc1
#38 CCn1c(COc2ccc(C(C)C)cc2)nnc1SCC(=O)Nc1nccs1
#39 CCOc1ccc(S(=O)(=O)Nc2ccc(C(=O)N(C)CC(=O)Nc3ccc(OC)cc3)cc2)cc1
#40 Cc1ccc(OCC(=O)O/N=C(\N)c2cccc([N+](=O)[O-])c2)cc1C
assay / compound,33,34,35,36,37,38,39,40
Vif A3G,.,4%,.,5%,-19%,-1%,0%,1%
Beta cell apopt,-6,-5,1,4,2,.,2,.
RanGTP-Impb inh,1.1,-2.6,.,2.6,-4.9,-4.6,0.7,2.8
LANA-H2A inh,-6.6,-0.1,2.1,-3.1,-2.3,1.1,-4.1,14
T cruzi repl,58*,0,.,-3,43,-7,3,0
Bfl-1 A1 inh,0.6,0.4,-0.7,0.6,0.1,0.4,-0.1,0.6
MLL AF4-AF9 inh,-1.8,.,-0.2,4.5,.,.,-0.8,0.7
Calb FLC,-5,0,.,4,8,8,-3,0

#41 Cc1nc2ccccc2c(=O)n1N
#42 N#Cc1ccccc1S(=O)(=O)N1CCN(C(=O)[C@H](Cc2ccccc2)NC(=O)c2ccco2)CC1
#43 O=C(Nc1cc(C(F)(F)F)ccc1-n1cncn1)c1ccc([N+](=O)[O-])o1
#44 CCOc1ccc(C)cc1S(=O)(=O)NC1CCCCCC1
#45 CCOc1ccccc1NC(=O)c1cc(C(=O)Nc2ccccc2OCC)cc(N2C(=O)CCC2=O)c1
#46 O=c1c2ccccc2nc(/C=C/c2ccc(Cl)cc2)n1CCO
#47 Cc1ccccc1NC(=O)CC(=O)c1ccccc1
#48 C=CCn1c(SCC(=O)O)nnc1-c1cccc(Cl)c1
assay / compound,41,42,43,44,45,46,47,48
Vif A3G,-4%,-5%,13%,5%,12%,1%,-4%,0%
Beta cell apopt,-5,8,-10,-7,-8,3,-8,5
RanGTP-Impb inh,0.0,.,0.8,-0.8,1.1,-5.2,-0.1,-0.8
LANA-H2A inh,2.1,4.2,-3.3,-0.1,8.8,13,-0.1,1.9
T cruzi repl,-3,.,42,6,-22,-1,-2,-10
Bfl-1 A1 inh,0.8,0.3,-0.6,0.1,-0.5,0.7,-0.1,0.0
MLL AF4-AF9 inh,-1.5,3.9,1.3,-0.5,0.6,0.8,-3.0,.
Calb FLC,-11,.,16,-8,37,-5,-5,2

#49 Cc1cc(NC(=O)C(C)Oc2ccc(C(C)(C)C)cc2)no1 (stereo not given)
#50 CC(=O)Nc1ccc(NC(=O)C2CCCN2C(=O)Nc2ccc(F)c([N+](=O)[O-])c2)cc1 (stereo not given)
#51 Cc1cc(NC(=O)Cn2cnc3c(cnn3C(C)(C)C)c2=O)no1
#52 CCN(C(=O)COC(=O)/C=C/c1cccc([N+](=O)[O-])c1)c1c(N)n(Cc2ccccc2)c(=O)[nH]c1=O
#53 O=C(NNC(=O)c1ccccc1O)c1ccco1
#54 CNCc1ccccc1Sc1ccc(OC)c(OC)c1
#55 COc1ccc(CN(C(=O)CSc2nnc(-c3ccccc3C)o2)c2ccc(F)cc2)cc1
#56 Cc1cc(=O)oc(C)c1C(=O)N[C@@H]1CCCCNC1=O
#57 CCOC(=O)C1CCN(C(=O)c2cccnc2)CC1
#58 COc1ccc(NC(=O)Cc2c(C(=O)O)n(C)c3ccccc23)cc1OC
#59 Cc1ccc(O)c(-c2[nH]ncc2C(=O)c2ccc(Cl)cc2)c1
assay / compound,49,50,51,52,53,54,55,56,57,58,59
Vif A3G,.,7%,14%,-3%,-3%,?,12%,1%,10%,-12%,.
Beta cell apopt,-3,0,5,2,0,-10,-7,-4,-5,-2,-5
RanGTP-Impb inh,-2.6,2.2,0.2,.,-3.0,1.6,6.1,3.2,-1.5,3.7,0.4
LANA-H2A inh,-1.8,2.5,2.1,1.3,3.4,8.7,-2.5,6.7,0.9,-3.7,0.2
T cruzi repl,7,0,16,.,-28,9,16,-2,-10,-25,6
Bfl-1 A1 inh,-0.8,0.2,0.5,1.1,0.4,0.9,0.5,-0.7,-0.9,0.7,0.1
MLL AF4-AF9 inh,-1.8,1.0,.,-3.1,-1.2,.,.,.,.,-1.7,3.1
Calb FLC,-4,14,-5,.,8,1,23,-13,-2,0,31
